BJeLR lethal: MLPCN primary cell-based screen for lethality selective to Ras in HRASV12 cells. 0.17% of 300,000 active. inhibition, % (test concentration not listed). BJeLR (HRASV12) viability, CellTiter-Glo ATP luminescence, 48 h; reference of the scale not given here. AID 1554, 2009;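 active = replicate mean above 50%; inconclusive = above 50% but judged a plate artefact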;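 also: 50 nL library stock added to about 25 µL; numbers are from one replicate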
Mtb hypoxia inh: PubChem AID 1159583. M. tuberculosis hypoxia-regulated fluorescent reporter, fluorescence. fluorescence inhibition, % (concentration not given with the values). 0.1% of 300,000 active;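 active = 35 to 45% if threefold the growth effect, above 45% if 1.5-fold the growth effect; inactive = the rest, general growth blockers included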;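 also: wells of about 50 µL received 100 nL stock; 0% = vehicle wells and 100% = reference inhibitor wells; whole bacteria with a GFP reporter of the hypoxia response; strong numbers were not always called active; many hits fall short of the cut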
Bead autofluor: compound fluorescence in toxin protease inhibitor counterscreen; AID 624483; compound autofluorescence counterscreen, microsphere flow cytometry; hits give high values; fluorescence intensity (no concentration beside the values); 3.1% of 360,000 active;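 active = at least 3 SD above the mean of all compounds, about 16000 in these data; inconclusive = too few beads counted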;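 also: 100 nL of 1 mM stock went into each well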
ugtP null kill: growth inhibition of ugtP-null S. aureus, primary screen, RN4220 ugtP deletion, OD600. 16 h; some inactives read as strong as hits. growth inhibition, % (test concentration not listed). 0.54% of 330,000 active. AID 1259309, 2017;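 active = z-score under -3 and OD600 up to 0.15 on both plates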;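 also: plate controls were untreated wells for no effect and antibiotic for full effect; wells of about 80 µL received 100 nL stock; the first replicate is given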
Sa RN4220 lethal: growth inhibition of S. aureus RN4220, primary screen, OD600; AID 1259311, 2017; 16 h; inhibition, % (test concentration not listed); 0.33% of 330,000 active;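 active = z-score of -3 or lower and OD600 up to 0.18 on both plates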;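 also: plate controls were untreated cells for no effect and reference antibiotic for full effect; stock transfer was 100 nL into about 80 µL; one replicate is shown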
PrP 5UTR inh: inhibition of PrP 5' UTR reporter expression; AID 488862, 2010; inhibition, % (concentration not given with the values); 0.35% of 340,000 active; cell-based PrP 5' UTR mRNA reporter, plate reader;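 active = every replicate at 50% or more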;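 also: 0 = median of the neutral control wells; tested in H4 reporter cells; numbers are from one replicate; inactives centre near -14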
Mtb hypoxia inh growth: also measured in Mtb hypoxia inh; calls as there; growth inhibition, %; measured here: M. tuberculosis growth (absorbance);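 0% = vehicle and 100% = reference antibiotic; read after six days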
An asterisk follows results filed as active; u = inconclusive; x = not tested or not shown; & = joins results of further samples.

SMILES | BJeLR lethal | Mtb hypoxia inh | Mtb hypoxia inh growth | Bead autofluor | ugtP null kill | Sa RN4220 lethal | PrP 5UTR inh
Cc1cc(-c2n[nH]c(=S)n2Cc2ccco2)n(C)n1 | -1.1 | 17.4 | 7.4 | 8722 | 4.7 | 4.8 | -10.8
CCN(C(=S)Nc1ccc(C(C)=O)cc1)C1CCCCC1 | -5.5 | -2.9 | 9.0 | 4351 | 5.8 | 7.3 | -36.8
CCOC(=O)CC(NC(=O)c1ccc(C)cc1)c1ccc(C)cc1 (configuration not stated) | -2.4 | 7.6 | 4.7 | 3180 | -0.5 | 2.7 | -9.4
CSc1nc(N)nc2c1ncn2CC(=O)NCc1ccc2c(c1)OCO2 | x | -5.6 | -8.2 | 3244 | 7.0 | 1.2 | -8.2
FC(F)Oc1ccccc1C=NNc1nc2ccccc2o1 | x | 13.5 | 0.2 | x | -3.4 | 2.1 | x
CSc1nnc(Cn2c(=O)sc3ccccc32)n1-c1ccccc1 | -1.7 | x | x | 5786 | 2.1 | 0.8 | -9.0
CCCN1CCN(C(=O)c2nn(-c3ccc(OC)cc3)c(=O)c3c2c2ccccc2n3C)CC1 | -0.6 | 4.6 | -1.0 | 2000 | -0.2 | -4.0 | -2.0
CC(C)(C)C1CCC(OCC(O)CN2CCCC2)CC1 (configuration not stated) | 3.2 | 6.1 | 14.2 | 2236 | 11.8 | 0.0 | -20.5
CN(CC(=O)Nc1ccc(F)cc1)c1ccc(S(=O)(=O)N2CCCC2)cn1 | -1.9 | -2.7 | 7.1 | 4728 | 2.7 | 3.8 | -10.4
O=C(N/N=C/c1ccc(O)c(O)c1)c1ccc(CSc2cccc3cccnc23)cc1 | -11.4 | x | x | 10016 | x | x | -17.0
CCCCNC(=O)CCn1c(=O)c2ccccc2n(Cc2cc(C)ccc2C)c1=O | -8.7 | 10.2 | 6.5 | 1991 | 5.9 | 2.1 | -8.2
Cc1ccc(-n2nc(C(=O)NCc3ccco3)c3c4ccccc4n(C)c3c2=O)cc1 | 32.2 | x | x | 4311 | 5.3 | 4.0 | -6.3
CCSc1nc(=O)n(-c2ccccc2)c(C)c1C(C)=S | -2.2 | 1.3 | 1.8 | 8400 | -0.5 | -1.7 | -17.0
C=CCC(CC(=O)NC(CO)Cc1ccccc1)C(=O)NC(COC(=O)C(CC=C)CC(=O)OC(C)(C)C)Cc1ccccc1 (configuration not stated) | x | 16.7&-1.0&-4.5 | 10.0&4.0&-3.6 | x | 7.0&-11.8&-7.8 | -0.8&5.6&8.0 | x
CC1=C(C(N)=O)C(c2ccccc2)n2nc(-c3cccc(C)c3)nc2N1 (configuration not stated) | -2.4 | x | x | 5764 | 2.9 | 5.0 | -7.4

Not a retest: 2 of the compounds above.
SMILES | BJeLR lethal | Mtb hypoxia inh | Mtb hypoxia inh growth | Bead autofluor | ugtP null kill | Sa RN4220 lethal | PrP 5UTR inh
C=CCC(CC(=O)NC(CO)Cc1ccccc1)C(=O)NC(COC(=O)C(CC=C)CC(=O)OC(C)(C)C)Cc1ccccc1 (configuration not stated) | x | 16.7&-1.0&-4.5 | 10.0&4.0&-3.6 | x | 7.0&-11.8&-7.8 | -0.8&5.6&8.0 | x
CC1=C(C(N)=O)C(c2ccccc2)n2nc(-c3cccc(C)c3)nc2N1 (configuration not stated) | -2.4 | x | x | 5764 | 2.9 | 5.0 | -7.4

Further results follow.
SMILES | BJeLR lethal | Mtb hypoxia inh | Mtb hypoxia inh growth | Bead autofluor | ugtP null kill | Sa RN4220 lethal | PrP 5UTR inh
Cc1ccc(C2C(C(=O)O)c3ccccc3C(=O)N2C)c(C)c1 (configuration not stated) | 7.8 | -8.6 | -2.6 | 8957 | 1.9 | 4.2 | -23.9
O=C1C(Cc2ccc(O)cc2)NC(=S)N1Cc1ccccc1 (configuration not stated) | -10.0 | 10.7 | 20.0 | 4617 | 11.0 | 6.0 | -15.0
CCOc1ccccc1C1CC(=O)NC(SCC)=C1C#N (configuration not stated) | 10.9 | 5.2 | 3.3 | 13272 | 2.4 | 4.2 | 8.1
CCOC(=O)C1(Cc2cccc(Cl)c2)CCCN(C(=O)CCSC)C1 (configuration not stated) | -5.4 | 4.1 | -1.5 | 3526 | -2.6 | 6.7 | -12.7
CN(C)NC(=O)C(NC(=O)c1ccc(N)cc1)C12CC3CC(CC(C3)C1)C2 (configuration not stated) | 3.4 | 6.2 | 6.4 | 2323 | -2.5 | 1.6 | -15.0
COc1cccc(N2CCN(S(=O)(=O)c3cc4c(cc3Cl)NC(=O)CO4)CC2)c1 | 4.2 | -2.5 | 1.4 | 4510 | 7.0 | 6.2 | -10.0
COC(=O)c1ncn(C2OC(COC(C)=O)C(OC(C)=O)C2OC(C)=O)n1 (configuration not stated) | 4.7 | -0.2 | -10.2 | 2019 | 4.8 | -0.7 | -3.3
Cc1ccc(NC(=O)/C(C#N)=N/Nc2ccc(C(=O)O)cc2)c(C)c1 | -7.9 | x | x | 4096 | x | x | -3.8
Cc1ccccc1CN1CCN(CC(=O)NCc2ccccc2)CC1 | -6.0 | 5.4 | -2.0 | x | 10.5 | 4.8 | 5.9
COc1ccc(C(=O)NC2CC(C)(C)Cc3occc32)cc1 (configuration not stated) | -1.9 | 13.4 | 10.2 | 2714 | -0.1 | 5.4 | -9.4
N/C(=N\OC(=O)CC1CCCCC1)c1ccc([N+](=O)[O-])cc1 | -8.6 | x | x | 2341 | x | x | 0.5
O=C(C[n+]1cccc(C=NO)c1)N1CCCCCC1 | x | 7.8 | -1.7 | x | -4.1 | 1.3 | x
CC(C)[C@H](NC(=O)NCCc1ccc(F)cc1)C(=O)O | -6.6 | x | x | 2583 | x | x | -14.0
CCCn1c(N)c(N(CCOC)C(=O)c2ccc(F)cc2)c(=O)[nH]c1=O | -3.1 | 8.6 | 0.1 | 3030 | 5.2 | 3.8 | -28.7
COc1ccc(CN2CCNC(=O)C2CC(=O)N2CCCCO2)cc1OC (configuration not stated) | 0.2 | -4.4 | 7.2 | 2720 | -0.8 | -0.5 | -17.0
CCC(=O)NCCc1nc2ccccc2n1CC(=O)c1ccccc1 | 4.8 | 5.4 | 9.4 | 6215 | 0.1 | -4.7 | -7.1
CCOc1ccc(NC(=O)C2CC(=O)N(C(C)C)C2)cc1 (configuration not stated) | -3.8 | 0.5 | -1.5 | 3780 | -10.0 | 0.2 | -5.5
CCCOc1ccc(/C=C2/C(=O)ON=C2C)cc1OCC | 3.5 | 6.8 | 9.0 | 3406 | 6.5 | 5.4 | -3.8
C=CCOc1c(Br)cc(/C=C2/C(=O)ON=C2C)cc1OC | 2.2 | -5.7 | -0.6 | 3780 | 0.1 | -1.5 | -2.7
Cc1ccc(NS(=O)(=O)c2ccc(C)c(NC(=O)COc3ccccc3)c2)c(C)c1 | 5.0 | 14.0 | 3.5 | 2195 | 6.8 | 9.4 | -20.2
COC(=O)c1ccc(Oc2c(C)oc3cc(OCc4cnn(-c5ccccc5)c4)ccc3c2=O)cc1 | -7.0 | 8.4 | -0.4 | 4666 | 7.0 | -5.4 | -9.0
COc1ccc(CC(C)=NNC(=S)Nc2ccc(Cl)cc2)cc1 | x | 3.2 | 3.5 | x | -1.5 | -0.7 | x
COC(=O)c1ccccc1NC(=O)c1ccc2nccnc2c1 | -0.9 | -0.4 | -4.5 | 4808 | 5.9 | -0.6 | -9.2
O=C1CC(C(=O)Nc2ccccc2)C2(CCCC2)O1 (configuration not stated) | -5.9 | 0.1 | 0.5 | 6305 | 8.6 | 7.0 | 1.3
Cc1cccc(NC(=O)CSCC(=O)Nc2ccccc2N2CCCCC2)c1 | 5.5 | 1.7 | 5.9 | 5824 | -6.6 | 9.7 | -10.8
COc1ccc2c(C)cc(=S)[nH]c2c1 | 9.1 | 0.1 | 3.4 | 4273 | 3.8 | 0.1 | -5.6
CCCCNC(=O)c1onc(CSc2nc3ccccc3[nH]2)c1C(=O)NCCCC | 5.3 | 4.5 | 5.9 | 3513 | -0.5 | -3.3 | -7.3
Cc1ccc(C(=O)Nc2cccnc2N2CCN(C)CC2)cc1 | 0.7 | -10.3 | -0.8 | 4249 | 3.3 | -0.8 | 30.6
CCCCN1C(Nc2ccccc2)=NCC1C (configuration not stated) | x | 6.1 | 4.5 | x | -6.8 | 3.3 | x
Cc1ccccc1-n1c(SCC(=O)O)nc2sc3c(c2c1=O)CCCC3 | -0.9 | -3.0 | 4.7 | 3605 | 10.4 | -1.0 | -18.0
N#Cc1cccnc1N1CCN(C(=O)COCC(=O)O)CC1 | -4.7 | -4.7 | 4.5 | 4457 | 2.2 | 1.9 | -2.4
O=C(CN1C(=O)CS/C1=C\c1nc(-c2ccc(Cl)cc2)cs1)Nc1cccnc1Cl | 2.4 | 5.0 | 7.2 | 3562 | 3.0 | 1.8 | 1.5
CCC1(C)Cc2c(C#N)c(N)sc(=S)c2CO1 (configuration not stated) | -4.5 | x | x | 4428 | 5.7 | 0.7 | -5.8
CCCC(CN1CCCC1CN1C(N)=NCC1Cc1ccccc1)N1CC(Cc2ccccc2)N(CCc2ccc(Cl)c(Cl)c2)C1=N (configuration not stated) | x | x | x | x | 100.5* | 100.8* | x
Cc1cc(C(=O)NCCc2ccccc2)c2cc(F)ccc2n1 | -12.6 | 14.1 | 4.6 | 4068 | 1.2 | -1.5 | -18.1
Cc1ccc(CN2C(=O)C3Cc4c([nH]c5ccccc45)C(C)(C)N3C2=O)cc1 (configuration not stated) | x | 1.7&9.8 | 5.4&-6.2 | x | 3.4&-1.8 | -0.4&-8.1 | x
COc1cc(/C=N\NC(=O)CNC(=O)c2cccc([N+](=O)[O-])c2)ccc1O | 1.1 | x | x | 3162 | x | x | -1.9
CN1CC(C#N)C2(O)c3ccccc3CCC2C1 (configuration not stated) | -1.8 | 17.2 | 4.7 | 4068 | 6.9 | -0.5 | -16.7
COc1ccc(S(=O)(=O)N(CCN2CCOCC2)Cc2cc(OC)ccc2OC)cc1 | -6.5 | x | x | 3717 | 2.7 | 2.3 | -4.1
CCn1c(SCC(=O)OC)nnc1-c1ccc(C)cc1 | 0.3 | 1.3 | 2.5 | 4594 | 3.6 | 10.1 | -27.5
O=C(Nc1ccc(Cl)cc1)Nc1nnc(SCc2ccccc2)s1 | -1.7 | 1.2 | -7.9 | 2917 | -9.6 | 0.9 | -23.9
O=C(Nc1c(F)cccc1F)c1cnc(N2CCN(c3ccccn3)CC2)c2ccccc12 | -11.4 | 12.7 | 21.6 | 7962 | 10.9 | 8.4 | -2.4
N#Cc1ccc(Oc2ccc(-c3nc4ccccc4nc3-c3ccccc3)cc2)cc1C#N | 14.0 | -5.2 | -6.0 | 7668 | -1.3 | 0.4 | -6.4
CCN=C1SC(C(=O)Nc2cccc(C)c2)CC(=O)N1CC (configuration not stated) | -2.4 | 10.3 | 11.4 | 3866 | -3.9 | 3.0 | 1.6
O=C(Nc1ncc2c(n1)-c1ccccc1CC2)C1CC1 | 9.3 | 6.2 | -3.8 | 4819 | 0.5 | 1.4 | 3.7
CCOc1ccc(CCNC(=O)C2CCN(c3nn4c(=O)cc(C)nc4s3)CC2)cc1 | x | -1.1 | 17.9 | 3943 | -3.7 | -14.6 | -26.1
C[C@]12CCC3C(C1CCC2=O)[C@H](O)C[C@H]1C[C@@H](O)CC[C@]31C (some centres not stated) | x | 7.8 | 11.2 | 3719 | 0.6 | -1.0 | -2.2
CC1Cc2ccccc2N1C(=O)c1nn(C)cc1Br (configuration not stated) | 6.1 | 4.0 | 3.0 | 3048 | 5.9 | 0.6 | -19.1
Cc1ccc(C(=O)NN2C(=O)C3C4c5ccccc5C(c5ccccc54)[C@@H]3C2=O)cc1 (some centres not stated) | 0.7 | -2.3 | -4.4 | 2265 | -0.3 | -0.1 | -16.0
O=Cc1ccc(N2CCCC2)c([N+](=O)[O-])c1 | 0.5 | 15.6 | 9.6 | 5403 | -2.4 | 4.4 | -23.8
COc1cccc(NC(=O)NNC(=O)C(C)Oc2ccc3ccccc3c2)c1 (configuration not stated) | 12.2 | -2.3 | 1.5 | u | -0.6 | -1.2 | -13.9

Some values from the entries so far:
Result for CC1Cc2ccccc2N1C(=O)c1nn(C)cc1Br (configuration not stated) in Mtb hypoxia inh growth: 3.0
Result for O=Cc1ccc(N2CCCC2)c([N+](=O)[O-])c1 in Bead autofluor: 5403
Result for CCOc1ccc(CCNC(=O)C2CCN(c3nn4c(=O)cc(C)nc4s3)CC2)cc1 in Mtb hypoxia inh growth: 17.9
Result for C[C@]12CCC3C(C1CCC2=O)[C@H](O)C[C@H]1C[C@@H](O)CC[C@]31C (some centres not stated) in ugtP null kill: 0.6
Result for COc1cccc(NC(=O)NNC(=O)C(C)Oc2ccc3ccccc3c2)c1 (configuration not stated) in Sa RN4220 lethal: -1.2

The order is random. About 4.1% of those tested had a hit in this group.
